Compound activity: PubChem BioAssay, several laboratories
eIF4H FP inh – inhibitors of RNA binding by human eIF4H. Q15056. inhibition, % at 35 µM. actives 0.94% (n = 290,000). eIF4H fluorescence polarization binding assay;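 active means 50% or more with normal probe brightness, or confirmed in later tests; inconclusive means above 50% with abnormal brightness, or retests that disagree; inactive means below 50% or failed in later tests; about a fifth of its hits are not listed in these tables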;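 further: calls also rest on retests at 20 µM and on dose response follow-up; 0% = protein and probe with vehicle and 100% = probe without protein; strong numbers were not always called active; many hits fall short of the cut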
Yeast UUG start – alters start codon recognition fidelity in yeast; S. cerevisiae UUG-firefly luciferase reporter, luminescence/redox ratio; activity score, % at 18.7 µM; actives 0.13% (n = 350,000); AID 602363;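 active means replicate mean at a twofold rise or more, about +100% in these data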;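 further: firefly luciferase made from a UUG start codon reports start codon fidelity; reporter light over untreated wells divided by growth signal over untreated wells; some hits fall short of that in this replicate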
CSC inhib – cancer stem cell inhibition. AID 2717. actives 1.1% (n = 300,000). cancer stem cell-like cells viability, luminescence. inhibition, % at 7.5 µM;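 active means mean at 75% or more and at least half the replicates too; inconclusive means mean and replicates disagree; tested in HMLE shEcad cells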;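 further: 0% = median of negative and 100% = median of positive control wells; the first replicate is given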
MT1-MMP act inh – inhibitors of human MT1-MMP activation | actives 0.061% (n = 360,000) | AID 651647 | GFP/RFP ratio change, % at 20 µM | P50281 | HT1080 RFP-PRO-GFP cells, GFP/RFP ratio fluorescence, overnight; percent of plate control window, DMSO zero;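 active means GFP/RFP ratio change of at least 30% with cell ATP level not reduced by more than half and red fluorescence within 50% of control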; further: strong numbers were not always called active
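Material – HT1080 RFP-PRO-GFP cells · Control set – DMSO wells and RFP-L50D-GFP cells · Incubation – overnight cell settling, then overnight compound exposure, 37 °C, 5% CO2 · Compound dosing – single-point 20 µM compound, 1% DMSO · Read-out – GFP/RFP fluorescence ratio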
Rce1 inhib – inhibitors of yeast Ras-converting enzyme | actives 0.27% (n = 290,000) | Q03530 | AID 2563 | calls only | yeast membranes, quenched prenylated peptide cleavage fluorescence;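 active means fall in fluorescence gain of 50% or more versus controls, with final raw signal at or below 3038400; inconclusive means same 50% fall but final raw signal above 3038400; inactive means fall in fluorescence gain under 50%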;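 further: plate controls were neutral control wells for no effect and wells lacking membranes for full effect; tested at 10 µM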
Target sequence (Q03530 whole entry, looked up): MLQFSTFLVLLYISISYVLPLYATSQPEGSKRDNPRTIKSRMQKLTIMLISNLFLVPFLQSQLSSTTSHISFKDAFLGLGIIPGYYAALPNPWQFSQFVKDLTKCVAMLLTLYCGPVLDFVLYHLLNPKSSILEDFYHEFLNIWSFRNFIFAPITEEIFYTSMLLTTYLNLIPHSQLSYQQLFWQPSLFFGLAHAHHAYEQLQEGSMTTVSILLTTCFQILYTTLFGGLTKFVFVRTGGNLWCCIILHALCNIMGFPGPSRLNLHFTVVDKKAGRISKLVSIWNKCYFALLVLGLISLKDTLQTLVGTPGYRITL
PABP FP inh – PABP-poly(A) binding inhibition. P11940. PABP-poly(A) RNA binding, fluorescence polarization. inhibition, % at 35 µM. actives 1% (n = 290,000). AID 2014;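 active means 50% or more with normal probe brightness, or confirmed in later tests; inconclusive means above 50% with abnormal brightness, or retests that disagree; inactive means below 50% or failed in later tests; about a fifth of its hits are not listed in these tables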;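 further: calls also rest on retests at 20 µM and on dose response follow-up; controls were probe without protein and protein plus probe with vehicle; some compounds called inactive have numbers as strong as hits; many hits fall short of the cut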
Target sequence (P11940 whole entry, looked up): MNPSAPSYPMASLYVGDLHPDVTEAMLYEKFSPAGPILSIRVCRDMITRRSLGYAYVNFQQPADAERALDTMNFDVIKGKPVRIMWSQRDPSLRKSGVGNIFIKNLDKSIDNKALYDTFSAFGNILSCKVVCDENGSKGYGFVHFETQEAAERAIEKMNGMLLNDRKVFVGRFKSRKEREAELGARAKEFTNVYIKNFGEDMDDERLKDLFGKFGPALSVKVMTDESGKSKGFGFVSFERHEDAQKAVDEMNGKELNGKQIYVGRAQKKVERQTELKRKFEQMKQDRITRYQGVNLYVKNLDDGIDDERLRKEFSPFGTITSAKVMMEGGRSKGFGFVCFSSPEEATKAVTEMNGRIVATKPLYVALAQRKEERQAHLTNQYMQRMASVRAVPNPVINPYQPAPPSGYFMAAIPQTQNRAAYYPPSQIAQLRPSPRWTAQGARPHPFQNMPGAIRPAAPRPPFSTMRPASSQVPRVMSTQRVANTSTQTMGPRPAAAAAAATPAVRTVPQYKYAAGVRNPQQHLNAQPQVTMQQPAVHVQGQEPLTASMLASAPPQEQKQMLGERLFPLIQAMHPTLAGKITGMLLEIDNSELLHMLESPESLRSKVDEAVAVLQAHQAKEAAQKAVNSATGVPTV
HIV Env fusion – HIV envelope-mediated fusion inhibition | HeLa-JRFL Env/CEM21 cell fusion, luciferase | inhibition, % at 12.3 µM | actives 1.1% (n = 360,000) | AID 651610;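 active means mean replicate inhibition score of at least 50 and every replicate individually at or above 50; inconclusive means only one of the two criteria met; inactive means mean below 50 and not all replicates reaching 50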;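 further: 0% = plate neutral controls and 100% = maraviroc near 300 nM; one replicate is shown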
eIF4H FP inh retest – second read-out of eIF4H FP inh, no call of its own (marks repeat the call); inhibition, %; compound at 20 µM; confirmation average;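 mean of two retest wells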
PABP FP inh retest – also measured in PABP FP inh; calls as there; inhibition, %; compound at 20 µM; confirmation repeats;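 mean of two retest wells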
MT1-MMP act inh RFP – second read-out of MT1-MMP act inh, no call of its own (marks repeat the call); RFP signal change, %; measured here: RFP expression control read;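 0 = vehicle wells; hits needed this value within 50% of zero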
An asterisk follows results filed as active; i = inactive; ? = inconclusive; · = not tested or not shown.

SMILES	eIF4H FP inh	Yeast UUG start	CSC inhib	MT1-MMP act inh	MT1-MMP act inh RFP	Rce1 inhib	PABP FP inh	HIV Env fusion	others
COC(=O)Cc1c(C)c2ccc(OC3CCCCC3=O)cc2oc1=O (configuration not stated)	4	-7	-11	4	-4	i	-5	-7
Cc1c(Cl)cccc1NC(=O)C1CCCCC1	4	·	-9	·	·	i	-1	-3
COc1ccc(/C=N/NC(=O)C2COc3ccccc3O2)cc1OC (configuration not stated)	-4	·	7	0	3	i	-6	-16
COc1ccc(C(F)(F)F)cc1NC(=O)c1nc2nc(C)cc(C(F)F)n2n1	-3	-9	-6	-2	-1	i	4	·
C=CC[C@@H](CC(=O)OC(C)(C)C)C(=O)OC[C@H]1CCCN1C(=O)[C@@H](CC=C)CC(=O)NCCO	·	11	-4	4	0	·	·	6
O=C(COC(=O)c1cccc2ccccc12)NCCCc1ccccc1	2	-4	-2	3	4	i	-2	1
CCOC(=O)c1ccc(-c2n[nH]c(=O)c3ccccc23)cc1	-18	-14	2	-5	-3	i	5	·
COc1cc(CN2CCN(Cc3ccc(C)cc3)C(CCO)C2)ccc1O (configuration not stated)	-1	·	-11	3	2	i	0	15
COc1cccc(C(=O)NC2CC3CCC(C2)N3Cc2ccccc2)c1 (configuration not stated)	1	-4	-1	3	4	i	14	-18
Cc1ccc(C(=O)O/N=C/c2c(C(F)(F)F)nn(C)c2Sc2ccc(Cl)cc2)cc1	-2	-1	-18	-3	-7	i	-2	·
CC(C)(C)OC(=O)N/N=C\c1ccc([N+](=O)[O-])s1	21	·	-15	-1	-2	i	-12	12
Cc1nc2ccccn2c1C(=O)c1ccccc1	-1	-20	-10	0	3	i	7	·
COc1cc(OC)c([N+](=O)[O-])cc1/C=N/NC(=O)c1ccncc1	59*	·	-8	2	4	i	12*	7	eIF4H FP inh retest=92*;PABP FP inh retest=61*
O=C(NCc1ccccn1)c1nc(-c2cccs2)no1	-3	·	-6	6	6	i	12	-4
CCCCCc1nnc(NC(=O)C(=O)OCC)s1	-2	-18	1	5	6	i	3	-16
COc1ccc(NS(=O)(=O)Cc2ccccc2)cc1OC	-10	-25	·	4	-2	i	-12	·
NC(=O)c1ncn([C@@H]2O[C@H](CNC(=O)[C@@H](N)Cc3cccnc3)[C@@H](O)[C@H]2O)n1	·	-8	·	2	3	·	·	-123
C/C(=C\c1ccccc1)CN1CCN(Cc2ccc(C)o2)C(CCO)C1 (configuration not stated)	6	-20	10	-2	-2	i	-13	3
Cc1cc(=O)oc(C)c1C(=O)N1CCCCC1	-9	-3	-4	-5	0	i	-5	17
CC(Sc1nc2ccccc2c(=O)n1CC1CCCO1)C(=O)N(C)c1ccccc1 (configuration not stated)	·	-1	·	-2	-1	·	·	7
COc1ccc(CCNC(=O)c2coc(=O)c(Br)c2)cc1	-8	·	?	·	·	i	3	-437
Cc1onc(-c2ccccc2)c1C(=O)N1CCCC(C(F)(F)F)C1 (configuration not stated)	-10	12	7	-4	1	i	-2	·
COc1ccc(CCn2c(N)cc(=O)[nH]c2=S)cc1OC	-2	-12	-5	-1	3	·	-1	·
O=C(Cc1c(Cl)cccc1Cl)OCC(=O)N1CCc2ccccc2C1	-15	·	7	1	3	i	-4	-13
C/C(=N/NS(=O)(=O)c1cc(C)ccc1C)c1c[nH]c2ccccc12	-12	-12	·	5	-1	i	-7	23
CC(C)C(=O)Nc1ccc(NC(=O)c2ccc([N+](=O)[O-])cc2Cl)cc1	-3	-4	-4	3	1	i	-9	15
Cc1cccc(C)c1NC(=S)N(CCCN1CCOCC1)Cc1cccnc1	4	-16	-6	5	5	i	-10	-22
CN(C(=O)Cn1nc(C(=O)O)c2ccccc2c1=O)c1ccccc1	2	-8	5	0	3	i	8	-15
Cn1nccc1NC(=O)CC(CC(=O)O)c1ccccc1 (configuration not stated)	-1	·	1	0	3	i	1	3
CCOC(=O)N1CCN(S(=O)(=O)c2ccc(C(=O)Nc3nc4ccccc4s3)cc2)CC1	4	-9	29	-2	-9	i	2	·

2 compounds picked at random from those above:
SMILES	eIF4H FP inh	Yeast UUG start	CSC inhib	MT1-MMP act inh	MT1-MMP act inh RFP	Rce1 inhib	PABP FP inh	HIV Env fusion	others
C/C(=C\c1ccccc1)CN1CCN(Cc2ccc(C)o2)C(CCO)C1 (configuration not stated)	6	-20	10	-2	-2	i	-13	3
Cc1cccc(C)c1NC(=S)N(CCCN1CCOCC1)Cc1cccnc1	4	-16	-6	5	5	i	-10	-22

Further entries:
SMILES	eIF4H FP inh	Yeast UUG start	CSC inhib	MT1-MMP act inh	MT1-MMP act inh RFP	Rce1 inhib	PABP FP inh	HIV Env fusion	others
O=C1/C(=C/c2cccs2)SC(=S)N1N1CCOCC1	-4	-16	9	-3	-1	i	-4	-14
O=C(COc1ccccc1F)NNC(=O)c1ccc2c(=O)n3c(nc2c1)CCC3	·	-11	3	1	1	i	·	·
COc1ccc(C)cc1N1CC(C(=O)Nc2cccc(C(=O)NC3CC3)c2)CC1=O (configuration not stated)	·	-2	·	-1	2	·	·	-3
Fc1cccc(CN2CCCCCCC2)c1	-6	-5	-5	2	5	i	24	-42
C=CCN(C(=O)Cc1cccs1)c1nc(-c2ccc(S(C)(=O)=O)cc2)cs1	5	-14	28	-8	0	i	12	8
CC(=O)c1cnc2c(-c3ccccc3)c(C(F)(F)F)nn2c1C	66	·	3	-6	-4	i	75	-38	eIF4H FP inh retest=-5;PABP FP inh retest=11
COC(=O)[C@H](C)NC(=O)Nc1ccc(OC)c(OC)c1	-1	7	0	-5	1	i	-2	·
COC(=O)C1=CN(Cc2ccc(OC)c(OC)c2)C=C(C(=O)OC)C1c1ccc(O)cc1	0	4	-1	-6	-1	i	2	3
COc1ccccc1-c1cnc(C(O)c2ccc(Cl)cc2)[nH]1 (configuration not stated)	·	-7	·	8	-6	·	·	7
O=C(COC(=O)c1cc(Cl)ccc1O)c1ccc2c(c1)OCO2	·	·	-14	-3	0	i	·	-55
COCC(=O)N1CCCC(CNS(=O)(=O)c2ccc(OC)cc2)C1 (configuration not stated)	-3	·	-5	1	2	i	-2	0
COc1ccc(S(=O)(=O)NCc2nc3nc(C)cc(C)n3n2)cc1	·	-40	·	2	5	·	·	34
Cc1nc2c(C(=O)N3CCN(c4ccccn4)CC3)cnn2c(C)c1Cc1cccc(Cl)c1	-14	-6	42	-1	-4	i	-13	-3
CC(C)NC(=O)C1(S(=O)(=O)c2ccccc2)CC=CC1	-8	-22	-2	2	6	i	8	-10
CC(Sc1nnc(C2CC2)n1C1CC1)C(=O)Nc1ccc(C(N)=O)cc1 (configuration not stated)	·	-23	·	-2	4	·	·	31
Cc1c(Cl)cccc1NC(=O)C1=COCCO1	·	-3	0	4	-1	i	·	7
CC(=O)NC1=NN(C(C)=O)C(C)(CS(=O)(=O)c2ccc(C)c(C)c2)S1 (configuration not stated)	-5	-15	-15	5	-1	i	-7	·
CC(C)n1cc(CN2CCCC(C(=O)Nc3ccccc3Oc3cccnc3)C2)cn1 (configuration not stated)	0	1	-3	-1	-1	i	-10	-8
CC(C)C(=O)Nc1nc2c(c(=O)[nH]1)CCCC2	-3	·	-4	-2	3	i	-15	8
O=[N+]([O-])c1ccc(O)c(P(=O)(c2ccccc2)c2ccccc2)c1	-8	-4	12	-3	2	i	2	-2
CCOC(=O)c1cccc(NC(=O)C2CCCO2)c1 (configuration not stated)	8	-16	6	-3	1	i	5	·
COc1ccc(NS(=O)(=O)c2ccc(NC(=S)NC(=O)/C=C/c3ccccc3)cc2)nn1	10	-4	6	-7	-4	i	-1	·
CC(C)(CNC(=O)c1cccs1)N1CCOCC1	·	-7	-15	1	2	·	·	·
CC(C)(C)NC(=O)C1CCN(c2ccc(S(=O)(=O)N3CCOCC3)cc2Cl)CC1	-1	·	·	4	0	i	-1	-3
CCc1ccc(/C=C\C(=O)N2CCCC2)cc1	·	1	·	-2	-2	i	·	-27
CC(C)OC(=O)c1cn(-c2ccccc2)nc1-c1ccc2c(c1)OCCO2	-9	-13	0	-4	-6	i	-11	20
CSc1ccccc1NC(=O)c1noc(C)c1[N+](=O)[O-]	-12	-13	·	-1	2	i	-9	-37
O=C(c1ccc(Cl)s1)N1CCN(C23CC4CC(CC(C4)C2)C3)CC1	9	-5	18	4	2	i	16	·
CC(C)(C)NC(=O)C(=O)NCCC1=CCCCC1	5	10	-5	-1	1	i	3	1
Cc1cccc(NC(=O)CC2NCCNC2=O)c1 (configuration not stated)	-2	-14	-2	1	5	i	-1	-56

Part of the list above in order of heavy-atom count, ascending.
SMILES	eIF4H FP inh	Yeast UUG start	CSC inhib	MT1-MMP act inh	MT1-MMP act inh RFP	Rce1 inhib	PABP FP inh	HIV Env fusion	others
Cc1c(Cl)cccc1NC(=O)C1=COCCO1	·	-3	0	4	-1	i	·	7
CC(C)(CNC(=O)c1cccs1)N1CCOCC1	·	-7	-15	1	2	·	·	·
CSc1ccccc1NC(=O)c1noc(C)c1[N+](=O)[O-]	-12	-13	·	-1	2	i	-9	-37
CC(=O)NC1=NN(C(C)=O)C(C)(CS(=O)(=O)c2ccc(C)c(C)c2)S1 (configuration not stated)	-5	-15	-15	5	-1	i	-7	·
CC(C)(C)NC(=O)C1CCN(c2ccc(S(=O)(=O)N3CCOCC3)cc2Cl)CC1	-1	·	·	4	0	i	-1	-3
CC(C)n1cc(CN2CCCC(C(=O)Nc3ccccc3Oc3cccnc3)C2)cn1 (configuration not stated)	0	1	-3	-1	-1	i	-10	-8
COc1ccc(NS(=O)(=O)c2ccc(NC(=S)NC(=O)/C=C/c3ccccc3)cc2)nn1	10	-4	6	-7	-4	i	-1	·

(further entries)
SMILES	eIF4H FP inh	Yeast UUG start	CSC inhib	MT1-MMP act inh	MT1-MMP act inh RFP	Rce1 inhib	PABP FP inh	HIV Env fusion	others
CN1OC[C@@H]2CN(Cc3ccccc3)[C@H](c3ccc(-n4ccnc4)cc3)C[C@@H]21	·	-17	·	0	1	·	·	-15
Cc1ccc(S(=O)(=O)N2CCN(C(=O)CN3CCN(C)CC3)C2)cc1	4	-33	8	-1	3	i	3	·
O=C(N/N=C/c1cccc(OCc2ccccc2)c1)c1ccc(Br)o1	-8	-8	-3	1	1	·	-7	8
Cc1cccc(N2CCN(C(=O)COc3noc4nc(C)cc(C)c34)CC2C)c1 (configuration not stated)	·	3	·	3	3	·	·	10
Cc1cc(NC(=O)NC(=O)c2cccc(OC(F)(F)C(F)F)c2)n[nH]1	14	-5	8	-5	-2	i	2	-51
O=C(NCCCN1CCOCC1)c1cn(-c2ccccc2)nc1-c1ccc(F)cc1	·	-8	-19	-1	-2	·	·	-15
CC(C)(C)NS(=O)(=O)c1ccc(NS(=O)(=O)Cc2ccccc2)cc1	12	7	-6	-3	0	i	3	23
CC(=O)Nc1ccccc1C(=O)C(=O)NCCc1ccccc1	-11	·	-2	0	1	·	-3	19
CCOC(=O)c1ccc(NC(=S)NNC(=O)c2cc(-c3cccnc3)nc3ccccc23)cc1	6	-15	31	4	2	i	13	-313
Cc1ccc(-c2noc(-c3cc(C(C)(C)C)nn3Cc3ccccc3)n2)cc1	4	-14	-5	0	-4	i	2	-3

The list is partial. The share of hits here may be higher or lower than overall.
